# Source: PubChem BioAssay (National Center for Advancing Translational Sciences (NCATS))
# NPR1 antag = antagonists of human natriuretic peptide receptor Npr1. P16066. HEK293 hNpr1 GloSensor cGMP, ANP-stimulated luminescence. Potency, µM (highest dose often 46.3 µM), without a hit: at the highest dose activity change, negative = inhibition, usual class: inhibitors. 76,000 tested, 1.6% active. AID 1347048; active = well fitted inhibition curve with a large enough effect; inconclusive = small, poorly fitted or top-dose-only effect; inactive = no such curve, though single readings can be large or run the other way;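 note: nearly all actives have a fitted effect of over 60% in size; nearly all hits also lower the signal before the agonist is added; a reference antagonist and vehicle were the controls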
# Target sequence (P16066 whole entry, looked up): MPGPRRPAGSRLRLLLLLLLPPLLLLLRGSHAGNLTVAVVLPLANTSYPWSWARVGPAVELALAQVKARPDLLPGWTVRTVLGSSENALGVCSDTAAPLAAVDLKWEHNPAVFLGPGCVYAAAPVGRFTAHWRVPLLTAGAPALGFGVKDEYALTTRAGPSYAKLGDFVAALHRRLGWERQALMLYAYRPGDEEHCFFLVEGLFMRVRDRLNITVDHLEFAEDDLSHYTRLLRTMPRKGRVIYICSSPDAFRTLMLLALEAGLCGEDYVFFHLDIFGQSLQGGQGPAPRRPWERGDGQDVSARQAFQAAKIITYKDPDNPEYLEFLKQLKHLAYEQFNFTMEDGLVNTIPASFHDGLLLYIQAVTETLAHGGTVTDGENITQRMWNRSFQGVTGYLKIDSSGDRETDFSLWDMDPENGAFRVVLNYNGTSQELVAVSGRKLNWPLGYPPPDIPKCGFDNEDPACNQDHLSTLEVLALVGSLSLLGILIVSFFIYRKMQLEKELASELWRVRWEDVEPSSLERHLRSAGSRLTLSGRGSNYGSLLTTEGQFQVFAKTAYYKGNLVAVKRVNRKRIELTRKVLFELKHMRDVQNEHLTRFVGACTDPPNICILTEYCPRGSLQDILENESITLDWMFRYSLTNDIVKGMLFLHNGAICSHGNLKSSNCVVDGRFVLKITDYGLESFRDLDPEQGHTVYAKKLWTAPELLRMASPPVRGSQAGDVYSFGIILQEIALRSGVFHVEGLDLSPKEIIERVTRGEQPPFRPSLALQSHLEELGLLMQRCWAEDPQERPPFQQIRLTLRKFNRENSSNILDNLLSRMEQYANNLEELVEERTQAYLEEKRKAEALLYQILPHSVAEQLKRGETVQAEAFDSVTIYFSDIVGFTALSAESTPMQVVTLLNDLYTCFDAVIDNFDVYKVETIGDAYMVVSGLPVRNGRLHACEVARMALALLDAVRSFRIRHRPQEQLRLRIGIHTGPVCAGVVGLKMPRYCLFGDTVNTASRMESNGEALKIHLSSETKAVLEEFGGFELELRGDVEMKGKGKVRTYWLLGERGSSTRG
#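 Compound pre-incubated 30 min at room temperature on GloSensor-loaded HEK293 cells stably carrying hNpr1 and the pGS-40F cGMP biosensor. Stimulation uses hNppA at 0.1 nM final; luminescence is taken at baseline and 20 min post-agonist.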
# Active calls of the source: *; ? = inconclusive; [ ] = another dose, or the depositor's remark. % is set by controls: 0 for no effect and ±100 for the full control effect; potency is the fitted concentration of half-maximal effect. Some of the compounds tested; count on the stated rates, not on these rows.
SMILES,NPR1 antag
Cc1noc(C)c1CO[C@@H]1COCC[C@H]1NC(=O)Cn1nc2ccccc2n1,2%
Cc1ccc(C(=O)N2CCC3(CCCCO3)CC2)cn1,3%
O=C(Cc1ccccc1)NC1CCCc2c1[nH]c1c(Cl)cccc21 (stereo unspecified),-2%
Cc1cn2nc(C(=O)N3CCN(C4CCCCC4)CC3)cc2c(N(C)Cc2ccccc2)n1,-5%
Cc1cc(C)cc(Nc2nc(-c3ccccc3F)no2)c1,?
COc1ccc(-c2nnc(C[C@@H]3C[C@@H](C(C)C)[C@H](CNCc4ccncc4)C=C3C)o2)cc1,?
O=C(CCC1CCCN(S(=O)(=O)c2ccccc2F)C1)NCCN1CCCC1 (stereo unspecified),6%
O=C(c1ccc2[nH]ccc2c1)N1CCC(n2cc(-c3nc(-c4ccccc4)no3)nn2)C1 (stereo unspecified),7.9µM*
CCCn1cc(C2CCN(S(=O)(=O)c3ccccc3Cl)CC2)c2ccccc21,-3%
CN(C)c1ccc(-c2ccnc(N[C@H]3CO[C@H]4[C@@H]3OC[C@H]4OC(=O)Nc3cccc(C(F)(F)F)c3)n2)cc1,-15%
CCn1ncc(C(=O)N2C[C@@H](CO)[C@H](c3ccncc3)C2)c1C,-8%
COc1ccc(-c2nc3nccc(-c4ccsc4)n3n2)c(OC)c1,4%
CNC(=O)c1cc(-c2ccncc2)cc2c1OCCN2Cc1cccnc1,-7%[70.6 µM]
COc1cccc(-c2noc(CC3CCN(C(=O)c4ccc(F)cc4)CC3)n2)c1,5.6µM*
COc1ccc(-c2noc([C@@H]3CCCN3C(=O)c3ccccc3F)n2)cc1OC,5%
Cc1cnn(CCC(=O)N2CCCCCCNC(=O)CC2)c1,2%
CCN1C(=O)C(CC(=O)N2CCCCCC2)Sc2ncccc21 (stereo unspecified),4%
CC(C)(C)c1ccc(C(=O)Nc2nc3c(s2)C[C@@H]2[C@](C)(CO)[C@H](O)CC[C@@]2(C)[C@@H]3CC(=O)N2CCOCC2)cc1,-3%
Cc1ccccc1CNC[C@H]1O[C@@H]2C[C@@H](CC(=O)N3CCOCC3)O[C@@H]2[C@@H]1O,0%[70.6 µM]
O=C(CN1C(=O)NC2(CCOCC2)C1=O)Nc1cccc(Br)c1,0%
OCC1CN(Cc2ccccc2)CC12CCN(Cc1ccccn1)CC2 (stereo unspecified),-1%
Fc1ccc(-c2cc(CC3(NCc4ccco4)COC3)no2)cc1,-15%[70.6 µM]
O=C(c1cncnc1)N1CC[C@H](c2nc3ccc(F)cc3[nH]2)C1,3%[70.6 µM]
CN1C(=O)C(CC(=O)NCc2cccnc2-n2ccnc2)N(C)C1=O (stereo unspecified),-4%
O=C(Nc1ccccc1)[C@H]1O[C@H](CCN2CCN(c3ccccc3)CC2)CC[C@@H]1O,2%[70.6 µM]

# Overlap with the part before: 3 entries, followed by the next part.
SMILES,NPR1 antag
O=C(c1cncnc1)N1CC[C@H](c2nc3ccc(F)cc3[nH]2)C1,3%[70.6 µM]
CN1C(=O)C(CC(=O)NCc2cccnc2-n2ccnc2)N(C)C1=O (stereo unspecified),-4%
O=C(Nc1ccccc1)[C@H]1O[C@H](CCN2CCN(c3ccccc3)CC2)CC[C@@H]1O,2%[70.6 µM]
O=C(Cc1ccc(Cl)cc1)N1CC(c2nnc(-c3ccncc3)o2)C2(CCOCC2)C1 (stereo unspecified),1%
O=C(CCC(F)(F)F)N1CCC(CCC(=O)N2CCC(Cc3ccccc3)CC2)CC1,?
Cc1ccc(OC2(C(=O)N3CCCC3c3nccs3)CCNCC2)cc1 (stereo unspecified),-4%
COCC1CN(C(C)=O)CC12CCN(C(=O)c1ccc(C(F)(F)F)cc1)CC2 (stereo unspecified),-11%
COc1ccc(-c2nc(N3CCOCC3)cc3c2CN(CC2CC2)C3=O)cn1,2%[70.6 µM]
COc1ccc(C(=O)N[C@@H]2CCC[C@@H]2C(=O)NCc2ccccc2C(F)(F)F)cc1,-7%
c1ccc(-c2noc(Nc3ccc4c(c3)OCCO4)n2)cc1,-29%
CN1c2cc(C(=O)Nc3ccc4c(c3)CCC4)ccc2C(=O)N2CCCCCC21 (stereo unspecified),-10%
CCN1C(=O)CCN(C(=O)NCc2ccccc2)CC12CCOCC2,1%
O=C1NCCCCCCN(C(=O)CCC2CCCC2)[C@H]2C[C@H](c3nc(Cc4ccccc4)no3)C[C@@H]12,-8%
COc1ccc(NC(=O)CN2C(=O)COc3ccc(C(=O)COc4cccc(F)c4)cc32)cc1,-1%
O=C(c1nnc(CN2CCOCC2)n1Cc1ccccc1)N1CCC[C@@H]1c1ccc(Br)cc1,-19%
O=C(NC1CCOC1)c1ccc2oc(-c3ccc(C(F)(F)F)cc3)nc2c1 (stereo unspecified),-2%
COc1cc(CN2CC[C@H](CNC(=O)C3CC3)[C@H](N(C)C)C2)cc(OC)c1,11%
CC(c1cccs1)N(C)Cc1ccccc1 (stereo unspecified),0%[122 µM]
CCN1c2cc(C(=O)Nc3cc(C)cc(C)c3)ccc2C(=O)N2CCCC21 (stereo unspecified),1%
COCC(=O)N1CCC2(CC1)OC(=O)N(CCOc1ccccc1)C2(C)c1cccnc1 (stereo unspecified),3%[70.6 µM]
Cc1ccc2nc3n(c2c1)[C@@H](CNCc1ccc(C#N)cc1)COC3,-21%[70.6 µM]
CC(C)NC(=O)c1nc(-c2cc(Cl)cc(Cl)c2)c2ccccn12,-9%
O=C(NCc1ccc2c(c1)OCO2)c1csc(N2CCN(c3ccc(F)cc3)CC2)n1,10µM*
C[C@@]1(O)CCN(Cc2cccc(F)c2)C[C@H]1N1CCCC1,8%
O=C(O)c1ccc(CN[C@@H]2CO[C@H](CNS(=O)(=O)c3ccccc3)[C@H]2O)cc1,-1%[70.6 µM]
O=C(C[C@@H]1C[C@H]2O[C@H](CNC3CCOCC3)[C@@H](O)[C@H]2O1)N1CCC(F)(F)C1,5%[70.6 µM]
COc1ccc(C(=O)N2CCC(N3C(=O)CCC3C(=O)NC(C)C)CC2)cc1 (stereo unspecified),3%
O=C(NCCc1ccccc1)N1CCCC(Cn2cnc3cccnc32)C1 (stereo unspecified),-9%

# Entries from the list above with a Cl atom:
SMILES,NPR1 antag
O=C(Cc1ccccc1)NC1CCCc2c1[nH]c1c(Cl)cccc21 (stereo unspecified),-2%
CCCn1cc(C2CCN(S(=O)(=O)c3ccccc3Cl)CC2)c2ccccc21,-3%
O=C(Cc1ccc(Cl)cc1)N1CC(c2nnc(-c3ccncc3)o2)C2(CCOCC2)C1 (stereo unspecified),1%
CC(C)NC(=O)c1nc(-c2cc(Cl)cc(Cl)c2)c2ccccn12,-9%

# (listing goes on)
SMILES,NPR1 antag
CCc1cc(N2CCCC(C(=O)c3sccc3C)C2)ncn1 (stereo unspecified),7.1µM*
O=C(NCC1CCOCC1)Nc1c(F)cccc1F,2%
O=S(=O)(c1ccc(Br)cc1)N1CCC(n2cnnc2C2CC2)CC1,0%
Cc1ccc(-c2ccc3nnc(CNC(=O)Cc4ccsc4)n3n2)cc1C,2%
CCOc1ccccc1C(=O)NC1CCN(c2cnn(CCOC)c(=O)c2)CC1,0%
O=C1NCCCCCN(Cc2cccnc2)[C@@H]2CN(C(=O)Nc3ccccc3F)CC[C@@H]12,0%
Cc1ccc([S+](=O)([O-])N2CCC3OCCN(C(C)C)C(=O)C3C2)cc1 (stereo unspecified),1%[70.6 µM]
O=C(NCc1ccco1)C1CC(c2ccccc2)CN(C(=O)c2ccoc2)C1 (stereo unspecified),-1%
Cc1ccc(C2Cn3nnc(C(=O)N4CCC(C(=O)NCCC5=CCCCC5)CC4)c3CO2)cc1 (stereo unspecified),-1%
CCCNC(=O)Cc1ccc(N(Cc2ccc(F)cc2)C(=O)c2ccco2)cc1,-1%
CC(=O)N[C@H](C)c1onc(-c2ccc(Cl)cc2)c1C(=O)O,1%[70.6 µM]
O=C(Nc1ccccc1)N[C@H]1[C@H](O)[C@@H](Oc2ccccc2)[C@@H]2OC[C@H]1O2,0%[70.6 µM]
CCCN(C)C(=O)c1c(-c2ccc(OC)cc2)noc1[C@H](C)O,1%[70.6 µM]
CC1(C)CN(C(=O)c2ccc(CSc3ccccn3)cc2)CC1(C)O (stereo unspecified),-3%
O=C1c2c(nc(COc3ccccc3)n2Cc2ccccc2)NCCN1Cc1cccc(Cl)c1,-15%
O=C(N[C@H]1CO[C@H]2[C@@H]1OC[C@@H]2n1nnnc1-c1ccc2c(c1)OCO2)c1ccc(C(F)(F)F)cc1,?
CCOc1ccc2c(n1)CCN(C(=O)c1cccc(OC)c1)C2,-2%
N#CC1CCN(C(=O)c2c[nH]c3ncccc23)CC1,6%[70.6 µM]
COc1cc2c(cc1OC)C(C[C@H]1CN(C(=O)c3ccc4c(c3)OCO4)CC[C@H]1CC(=O)O)=NCC2,4%
Cc1ccc(OC2(C(=O)NC(C)c3nn[nH]n3)CCNCC2)cc1 (stereo unspecified),1%
O=C1CC(c2ccccc2)N(C(=O)CNC(=O)c2ccc3[nH]ccc3c2)CCCCCN1 (stereo unspecified),5%
CC1(C(=O)N2CCN(c3ccccn3)CC2)CCCc2cnc(Nc3cccnc3)nc21 (stereo unspecified),1%[70.6 µM]
O=C(CC(c1ccccc1)c1ccccc1F)N1CCSCC1 (stereo unspecified),-1%
O=C(c1ccccc1F)N1CCCN(c2cc(-c3ccccc3)[nH]n2)CC1,-2%
COc1ccc(C(=O)N2CCC3(CC2)OCC(C(=O)NCC(C)C)N3C(=O)c2ccc(C)cc2)cc1 (stereo unspecified),-7%
# (cont.)
SMILES,NPR1 antag
Cc1ccc2nc(C(C)NC(=O)c3cnc(-c4ccccn4)[nH]c3=O)[nH]c2c1 (stereo unspecified),-1%
Fc1ccccc1-c1noc(N2CCOCC2)n1,-14%
O=C(N1CCN([S+](=O)([O-])Cc2ccccc2F)CC1)N1CC2CC(C1)[C@H]1CCCC(=O)N1C2 (stereo partly specified),3%
O=C(C1CC1)N1CCC(OC2CCN(Cc3cccnc3)CC2)CC1,-2%
O=C(NCc1cccs1)c1nc(-c2cccnc2)c2ccccn12,2%
CCN(CC)C(=O)Cn1c(C)ccc(NS(=O)(=O)c2ccc(OC)cc2)c1=O,1%
COC1CCC12CCN(C(=O)c1cccn1C)CC2 (stereo unspecified),0%
COc1cccc(-c2noc(CC3CCN(C(=O)c4ccc(N(C)C)cc4)CC3)n2)c1,10µM*
CCN(CC)C(=O)C[C@@H]1c2nc(NC(=O)N3CCOCC3)sc2C[C@@H]2[C@](C)(CO)[C@H](O)CC[C@]21C,2%
CCC(=O)NCCC1CCN(C(=O)Nc2cc(F)ccc2F)CC1,3%
COc1ccc(Cl)cc1NC(=O)CCC1CCCN(S(=O)(=O)C2CC2)C1 (stereo unspecified),-1%
CN(C(=O)NCc1ccccc1)C1CCc2nn(CC3CC3)c(=O)n2CC1 (stereo unspecified),1%
CC(C)CN1C(=O)CO[C@H](c2ccc(NC(=O)c3ccc4c(c3)OCO4)cc2)[C@H]1CO,?
CC(C)CN(Cc1cccnc1)C1CN(C(=O)CCc2nc3ccccc3s2)C1,-11%
CN1[C@@H](CCC(=O)NCc2cccs2)CNC(=O)[C@@H]2[C@H]1CCN2CC1CC1,5%[70.6 µM]
O=C(O)c1ccc(CN2CCOC[C@H]2c2ncc(-c3ccc(C(F)(F)F)cc3)[nH]2)cc1,2%[70.6 µM]
CCc1ncc(C(=O)N(C)C2CCN(Cc3ccccc3)C2)cn1 (stereo unspecified),4%
COc1ccccc1-c1ccc(NCC2CCCN(C(=O)C3CC3)C2)nn1 (stereo unspecified),1%
Cc1nn2c(c1-c1ccccc1OCc1ccccc1)N(C(=O)Cc1ccccc1)CCC2,?
Cc1ccccc1N1Cc2c(NCc3cccc(Cl)c3)ncnc2N(C)CC1=O,1%
CCOc1ccccc1CNC(=O)c1noc(-c2ccc3c(c2)OCO3)n1,-6%
N#Cc1ccc(C(=O)Nc2ccc(=O)n3c2[C@@H]2C[C@@H](CN(C(=O)c4ccc(F)cc4)C2)C3)cc1,-1%
Cc1ccc(-c2nnc3ccc(NCCc4ccccc4)nn23)nc1,-7%[70.6 µM]
O=C(CCc1nc2ccccc2[nH]1)N1C[C@@H](CO)[C@H](c2ccncc2)C1,-3%
CCNC(=O)N1CCC(Cc2ccc(C(N)=O)cc2)CC1,17%

# Random excerpt: five entries already listed.
SMILES,NPR1 antag
O=C1NCCCCCCN(C(=O)CCC2CCCC2)[C@H]2C[C@H](c3nc(Cc4ccccc4)no3)C[C@@H]12,-8%
Cc1ccccc1N1Cc2c(NCc3cccc(Cl)c3)ncnc2N(C)CC1=O,1%
COC1CCC12CCN(C(=O)c1cccn1C)CC2 (stereo unspecified),0%
O=C(Cc1ccccc1)NC1CCCc2c1[nH]c1c(Cl)cccc21 (stereo unspecified),-2%
CNC(=O)c1cc(-c2ccncc2)cc2c1OCCN2Cc1cccnc1,-7%[70.6 µM]

# (further entries)
SMILES,NPR1 antag
CC(C)CC(O)C(=O)N1CCC(n2nccc2NC(=O)c2ccccc2)CC1 (stereo unspecified),1%
COC1CN(C2CCN(C(=O)c3sc(C)nc3C)CC2)C12CCOCC2 (stereo unspecified),2%
Cc1noc(C)c1-c1cc(-c2cncnc2)cn2cncc12,1%[70.6 µM]
Cc1cnc(C(=O)NCCc2ncc(C)n2C2CC2)cn1,1%
COc1ccc(-c2cc(N3CCCC(NC(=O)c4ccsc4)C3)n[nH]2)cc1 (stereo unspecified),-15%
Cc1nn(CCC#N)c(C)c1[C@@H]1C=C[C@@H](NC(=O)Nc2ccccc2)C1,3%[70.6 µM]
Cc1nc(N2CCCC(Cn3ccnc3)C2)c2sccc2n1 (stereo unspecified),-5%
